D2 ag = activates the human D2 dopamine receptor | DiscoveRx PathHunter D2 beta-arrestin, luminescence, 90 min; 100% = 57 uM dopamine signal | activation, % (concentration not given with the values) | actives 0.084% (n = 360,000) | P14416; in the data active = activation above about 40%; inconclusive = about 15% to 40%; inactive = below about 15%; further: compound concentration not given in the record; the text of the record calls up to 30% inactive
Target sequence (P14416 whole entry, looked up): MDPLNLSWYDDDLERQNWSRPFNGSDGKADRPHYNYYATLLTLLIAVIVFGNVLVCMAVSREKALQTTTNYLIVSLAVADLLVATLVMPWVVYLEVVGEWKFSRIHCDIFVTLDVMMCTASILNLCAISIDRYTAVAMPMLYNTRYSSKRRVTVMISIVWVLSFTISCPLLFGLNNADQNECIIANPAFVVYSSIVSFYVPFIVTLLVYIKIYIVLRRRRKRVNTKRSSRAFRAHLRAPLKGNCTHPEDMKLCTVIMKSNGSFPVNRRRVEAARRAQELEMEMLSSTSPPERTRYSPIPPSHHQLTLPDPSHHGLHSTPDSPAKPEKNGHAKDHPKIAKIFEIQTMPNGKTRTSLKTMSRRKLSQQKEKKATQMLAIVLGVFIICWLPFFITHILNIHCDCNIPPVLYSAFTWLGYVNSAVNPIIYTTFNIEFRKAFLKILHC
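DiscoveRx PathHunter D2 beta-arrestin cells (2,100/well) attached overnight, then compound-stimulated 90 min at 37 C in HBSS/10 mM HEPES/0.1% Tween-20 buffer; beta-galactosidase complementation read by luminescence after 1 h at ambient temperature. Dopamine 57 uM final (EC100) as control.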
CtBP-E1A inh = CtBP/E1A binding inhibition. AlphaScreen GST-E1A/His-CtBP binding, 1536-well; stronger effect = lower value; control for the full effect not named in the record. activity change, % (test concentration not listed). actives 0.49% (n = 340,000). AID 651724; in the data active means activity change below about -65%; inconclusive means about -30% to -65%; inactive means above about -30%; further: on the % scale 0 is the no-effect control and ±100 the full control effect; compound concentration not given in the record
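In 5 uL wells, 23 nL compound meets equimolar GST-E1A and His-CtBP (5X stock 125 nM each) for 2 h, 37 °C. Beads (5X, 50 ug/mL) then 1 h, 37 °C, dark.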
PINK1 modulator = changes PINK1 expression. PINK1 immunofluorescence, high-content cytometry, 24 h. Potency, µM (series often up to 76.6 µM), without a hit: at the highest dose activation (PINK1 increase), most hits filed as activators. actives 0.2% (n = 410,000). AID 624263; active = well fitted activation curve with a large enough effect; inconclusive = small, poorly fitted or top-dose-only effect; inactive = flat fitted curve, though single readings scatter; cell line not stated here;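 further: potency means the concentration at half of the fitted maximal effect; % of control where 0% means no effect; nearly all actives have a fitted effect of over 65% in size; a mitochondrial uncoupler was the plate control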
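Decision-based qHTS: stable cells, 24 h exposure to five compound concentrations, CCCP as control. Fixed cells stained for PINK1 plus nuclear, mitochondrial and cell markers, cytometer read.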
Six1-Eya2 blk = Six1/Eya2 interaction inhibition; Q15475+O00167; AlphaScreen GST-Six1/His-Eya2 binding, biochemical; stronger effect = lower value; control for the full effect not named in the record; activity change, % (no concentration beside the values); actives 0.56% (n = 360,000); AID 651725; in the data active = activity change below about -65%; inconclusive = about -30% to -65%; inactive = above about -30%; further: on the % scale 0 is the no-effect control and ±100 the full control effect; compound concentration not given in the record
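AlphaScreen luminescence read after one hour at 37 °C in darkness. Pin-transferred compounds met GST-Six1 and His-Eya2 protein (5X stock 250 nM/500 nM) plus glutathione donor and Ni-chelate acceptor beads (5X, 50 ug/mL).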
TRPML1 inh = human mucolipin-1 channel inhibition. Q9GZU1. TRPML1-inducible cells, Ca2+ dye fluorescence, FDSS; stronger effect = lower value; inhibition of EC80 agonist-evoked calcium signal. activity change, negative = inhibition, % (concentration not given with the values). actives 0.02% (n = 390,000). AID 624415; in the data active means activity change below about -50%; inconclusive means about -30% to -50%; inactive means above about -30%;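 further: stimulus is agonist 54-4 at its EC80 concentration; on the % scale 0 is the no-effect control and ±100 the full control effect; compound concentration not given in the record; the text of the record puts the active cut at -80%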
Target sequence (Q9GZU1 whole entry, looked up): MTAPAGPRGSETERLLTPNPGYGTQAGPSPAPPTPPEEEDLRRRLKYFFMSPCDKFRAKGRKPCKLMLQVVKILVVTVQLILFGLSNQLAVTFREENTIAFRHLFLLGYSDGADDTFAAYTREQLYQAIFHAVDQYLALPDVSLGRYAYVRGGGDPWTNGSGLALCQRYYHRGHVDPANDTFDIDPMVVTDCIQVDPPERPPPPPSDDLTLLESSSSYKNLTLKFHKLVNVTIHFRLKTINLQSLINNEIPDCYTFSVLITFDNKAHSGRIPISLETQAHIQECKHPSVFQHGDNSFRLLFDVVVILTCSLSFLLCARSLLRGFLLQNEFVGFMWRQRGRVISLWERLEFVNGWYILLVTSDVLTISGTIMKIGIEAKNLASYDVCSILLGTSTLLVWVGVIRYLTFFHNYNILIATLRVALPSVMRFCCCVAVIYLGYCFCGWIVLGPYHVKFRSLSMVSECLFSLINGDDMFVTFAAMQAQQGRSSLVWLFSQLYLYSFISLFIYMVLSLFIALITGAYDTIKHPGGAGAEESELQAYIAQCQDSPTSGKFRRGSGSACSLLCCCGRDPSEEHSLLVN
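Tet-induced TRPML1-DL cells loaded with Ca8 no-wash calcium dye were read kinetically on FDSS. Compound addition was followed by EC80 agonist 54-4 (4 uM final); inhibition was read over 110 s.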
TRPML1 ag = agonists of human TRPML1 channel; Q9GZU1; TRPML1-expressing cells, Ca2+ dye fluorescence, FDSS; host cell line not named in the record; reference of the full effect not given here; activation, % (no concentration beside the values); actives 0.12% (n = 410,000); AID 624414; in the data active = activation above about 50%; inconclusive = about 30% to 50%; inactive = below about 30%; further: 0% is about no effect; the text of the record puts the active cut at 80%
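Kinetic FDSS Ca2+ read in Tet-induced TRPML1-DL cells (ABD Ca8 dye plus quencher, 45-90 min RT loading): baseline, then compound, then 110 s agonist window; EC80 agonist 54-4 at 4uM final added afterwards for a 110 s antagonist window.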
The depositor's hits bear a star; ? = inconclusive; . = not tested or not shown; & = joins results of further samples; [ ] = another dose, or the depositor's remark. This is a random part of the collection; about 1% have a hit in one of these screens.

SMILES	D2 ag	CtBP-E1A inh	PINK1 modulator	Six1-Eya2 blk	TRPML1 inh	TRPML1 ag
Cc1cc(NC(=O)CSCC(=O)Nc2cc(C(F)(F)F)ccc2N2CCCC2)no1	-5.7	2	3.8%	0	15	-0.9
CC(=O)Nc1ccc(S(=O)(=O)NCCSCc2ccco2)cc1	1.3	-8	5.2%[38.3 µM]	-7	-8	0.5
COc1ccccc1OCCSc1nc(N)cc(N)n1	1.0	-6	-0.5%	-1	6	0.6
CCS(=O)(=O)N1CCN(C2Cc3ccccc3C2)CC1	-1.4	5	-1.0%	0	2	-0.3
O=C(NCCCN1CCCC1=O)C1CCN(S(=O)(=O)c2cccc(Cl)c2Cl)CC1	-2.4	-1	-1.2%	0	-3	0.5
O=C(O)CSCC(=O)Nc1ccc(C2CCCCC2)cc1	-3.1	5	2.0%	11	-8	-0.4
CC(=O)c1nn(-c2cccc(C)c2)cc1C(=O)c1cccc(Br)c1	0.4	3	9.9%	68	31	3.7
O=C1c2ccccc2C(O)N1Cc1ccccc1 (stereo not given)	-3.6	-1	6.3%[38.3 µM]	3	-2	1.0
Cc1ccc(Cn2nc(C)c3cc(C(=O)OCC(N)=O)sc32)cc1	1.6	5	8.6%	9	1	-0.9
CCc1ccc(C(O)c2ncc(-c3ccccc3Cl)[nH]2)cc1 (stereo not given)	-1.6	0	3.3%	-2	8	-0.5
Cn1cccc1Cc1nnc(SCC(=O)N2CCCC2)n1CCc1ccccc1	-0.9	0	2.4%	-2	5	1.0
Nc1cccnc1Oc1ccc(F)cc1F	0.8	-2	2.5%	0	-10	0.4
CC1=C(C(=O)Nc2cccc(C(=O)NC3CCCCC3C)c2)SCCO1 (stereo not given)	-1.0	-6	-0.3%	0	4	1.3
C[C@@H]1CCCCO[C@H](CN(C)C(=O)Nc2cccc3ccccc23)[C@@H](C)CN([C@H](C)CO)C(=O)c2cc(N(C)C)ccc2O1	-3.3	2	2.0%	-2	.	.
CCOC(=O)C1(Cc2ccccc2)CCCCCC1=O (stereo not given)	-1.1	18	17%	28	51	4.8
CC(=NNC(=O)c1ccncc1)c1ccccc1Cl	2.4	5	-0.9%	9	8	0.1
[O-]/C(=C(\C(=S)Nc1cccc2ccccc12)[n+]1ccccc1)c1ccc(Cl)s1	-0.4	13	5.7%	-21	-3	-0.1
Cc1cc(C)cc(OCc2cc(=O)n3c(-c4ccccc4)csc3n2)c1	.	.	?	.	-20	0.3
C=CCNC(=O)C(=O)N/N=C/c1ccco1	1.7	-1	-1.4%	4	25	0.2
Cn1cc(/C=C(\C#N)C(=O)Nc2ccccc2O)c2ccccc21	-0.4	5	?	-12	9	4.2
COc1cc(OC)cc(C(=O)N[C@H](C(=O)Nc2nc(-c3cc(OC)ccc3OC)cs2)C(C)C)c1	2.3	-8	1.2%	-7	20	2.3
COC(=O)CSc1nc2ccccc2o1	-2.4	11	0.2%[38.3 µM]	5	13	0.1
CCC(CO)Nc1ccn2nc(-c3cc(OC)c(OC)c(OC)c3)cc2n1 (stereo not given)	2.4	-2	4.0%	-7	.	-0.2
O=C(NCc1cccs1)c1ccc(Cn2c(SCc3cccc(F)c3)nc3cccnc32)cc1	.	.	1.0%	.	-19	4.0
CC(C)Cc1cc(C(=O)N2CCN(c3ccc(F)cc3)CC2)no1	-2.3	-1	2.2%	2	12	2.2
(list continues)
SMILES	D2 ag	CtBP-E1A inh	PINK1 modulator	Six1-Eya2 blk	TRPML1 inh	TRPML1 ag
Cc1nc(SCC(=O)NC2CCCC2)[nH]c(=O)c1Cc1ccccc1	0.6	8	0.9%[38.3 µM]	6	8	-0.5
Cc1cccc(-c2nc(CN3CCCC(C(=O)N4CCN(c5cc(Cl)ccc5C)CC4)C3)c(C)o2)c1 (stereo not given)	.	.	14%	.	21	0.8
Cc1ccc2c(c1)c1c(n2CC(O)Cn2c(C)nc3ccccc32)CCCC1 (stereo not given)	3.1	-28	-1.0%	2	-3	0.2
Cc1noc(C)c1NC(=O)N1CCN(Cc2ccccc2)CC1	-3.2	18	0.5%	35	34	0.4
COc1ccc(NC(=O)CSCc2cc(=O)n3c(C)csc3n2)cc1	-5.6	3	-0.4%	5	-14	-0.2
CC(=O)NCCc1cc2ccc(C)cc2[nH]c1=O	-2.8	-3	-0.4%	2	-3	-1.6
CN(C)S(=O)(=O)c1cccc(NC(=O)c2ccc(S(=O)(=O)N3CCCC3)cc2)c1	-2.3	-11	0.5%	5	1	1.0
COc1ccc(N(C(=O)C(C)C)S(=O)(=O)c2cccc([N+](=O)[O-])c2)cc1	0.5	-5	2.8%	-18	0	0.4
Cc1ccc(Nc2nnc(SCC(=O)c3cc4ccccc4o3)s2)cc1C	-1.4	0	-1.6%	-14	-2	0.3
O=C(Nc1ccon1)c1ccc(F)c(S(=O)(=O)N2CCCCC2)c1	-4.8	1	1.8%	-9	-7	0.1
CCCN1C2CCCC1CC(NC(=O)Nc1ccc(C(C)C)cc1)C2 (stereo not given)	-3.8	-4	0.7%	-3	47	1.3
Cc1ccc(N2CN=C(c3ccccc3)NC2=S)cc1	2.6	-3	-0.4%[38.3 µM]	-4	13	1.3
CCCCCCCCSc1nnc2[nH]c(=O)cc(N)n12	-2.4	2	-1.5%	30	-2	1.3
Cc1c(NC(=O)Cc2ccccc2)cccc1-c1nc2cccnc2s1	.	.	0.9%	.	0	-0.3
COc1ccc(C(C)(C)C)cc1NC(=O)COC(=O)c1ncc(Cl)c(Cl)c1Cl	-4.2	-6	2.1%	-2	5	4.6
Cc1c(NS(=O)(=O)c2ccc(C(=O)NCc3ccc(F)cc3)cc2)c(=O)n(-c2ccccc2)n1C	4.7	0	3.0%	14	-18	0.5
COc1cc([N+](=O)[O-])ccc1NC(=S)N1CCN(c2ccccn2)CC1	2.7	.	0.2%	-9	-2	0.5
CCOc1cc(/C=C2\C(=O)ON=C2c2ccccc2)cc(Br)c1O	-4.5	0	-1.1%	2	-5	0.1
CCc1ccc(NC(=O)C(C)OC(=O)c2cccc(S(=O)(=O)N3CCc4ccccc4C3)c2)cc1 (stereo not given)	-0.4	7	4.1%	-3	7	-0.5
CC(C)CC(NC(N)=O)C(=O)OCC(=O)NC(=O)NC1CCCC1 (stereo not given)	1.0	-7	-0.9%	-2	0	0.6
N#Cc1cnn(-c2ccccc2)c1N	-2.4	-6	2.0%[38.3 µM]	-10	-1	1.2
C[C@@H]1CN([C@@H](C)CO)C(=O)CCCn2nncc2CO[C@@H]1CN(C)C(=O)Nc1ccc(C(C)(C)C)cc1	-4.4	3	1.2%	-1	-7	0.0
Cc1ccc(C(=O)NS(=O)(=O)c2ccc(C)cc2)cc1	-7.7	0	2.1%	-19	.	.
CC(C)(C)NC(=O)CSc1nnc(-c2ccncc2)n1Cc1ccccc1	-1.8	0	-1.0%	4	11	0.2
CN(C(=O)CSc1nnc(-c2ccccc2)c(-c2ccccc2)n1)C1CCS(=O)(=O)C1 (stereo not given)	0.9	-2	1.4%	-5	15	0.1

Given as labelled records: entries from further up
CN(C(=O)CSc1nnc(-c2ccccc2)c(-c2ccccc2)n1)C1CCS(=O)(=O)C1 (stereo not given)
- D2 ag: 0.9
- CtBP-E1A inh: -2
- PINK1 modulator: 1.4%
- Six1-Eya2 blk: -5
- TRPML1 inh: 15
- TRPML1 ag: 0.1
Cc1c(NC(=O)Cc2ccccc2)cccc1-c1nc2cccnc2s1
- D2 ag: .
- CtBP-E1A inh: .
- PINK1 modulator: 0.9%
- Six1-Eya2 blk: .
- TRPML1 inh: 0
- TRPML1 ag: -0.3

(list continues)
SMILES	D2 ag	CtBP-E1A inh	PINK1 modulator	Six1-Eya2 blk	TRPML1 inh	TRPML1 ag
O=S(=O)(Nc1nc2ccccc2s1)c1ccc(Cl)s1	0.7	2	.	6	0	0.9
COCCNC(=O)CSCc1nc(-c2ccc(SC)cc2)oc1C	0.9	0	0.9%[38.3 µM]	-2	-5	0.0
CCOC(=O)[C@H](CCc1ccccc1)N[C@@H](C)C(=O)N1CCC[C@H]1C(=O)O	-6.6&-4.0	-19&2	0.6%&0.6%	11&2	-3&17	1.0&-0.1
O=C(Nc1cccc(C(F)(F)F)c1)c1cccnc1	0.4	3	0.2%[38.3 µM]	-1	-4	-0.2
CCCOC(=O)c1ccc(NC(=O)c2c(Cl)ccc(Cl)c2OC)cc1	1.0	8	0.6%	13	24	0.6
Cc1cccc(CC(=O)Nc2cccc(-c3nc4cccnc4s3)c2)c1	.	.	3.3%	.	-23	1.6
Cc1cccc(-c2nc3c4c(-c5ccccc5)c(-c5ccccc5)oc4ncn3n2)c1	.	.	-3.9%	.	5	0.6
CCOc1ccc(C(=O)CCC(=O)N(CC)CC(=O)Nc2c(F)cccc2F)cc1	-3.9	0	1.3%	0	-7	-1.0
CC1=C(C(=O)OCc2ccc(C)cc2)C(c2ccccc2Cl)CC(=O)N1 (stereo not given)	.	.	4.8%	.	31	1.8
CCOC(=O)C1(CCCc2ccccc2)CCN(C(=O)c2ccoc2)CC1	-0.9	0	-0.6%	-1	-9	-0.2

Entries above that have an aryl thioether with sulfur outside any ring:
SMILES	D2 ag	CtBP-E1A inh	PINK1 modulator	Six1-Eya2 blk	TRPML1 inh	TRPML1 ag
COc1ccccc1OCCSc1nc(N)cc(N)n1	1.0	-6	-0.5%	-1	6	0.6
Cn1cccc1Cc1nnc(SCC(=O)N2CCCC2)n1CCc1ccccc1	-0.9	0	2.4%	-2	5	1.0
COC(=O)CSc1nc2ccccc2o1	-2.4	11	0.2%[38.3 µM]	5	13	0.1
O=C(NCc1cccs1)c1ccc(Cn2c(SCc3cccc(F)c3)nc3cccnc32)cc1	.	.	1.0%	.	-19	4.0
Cc1nc(SCC(=O)NC2CCCC2)[nH]c(=O)c1Cc1ccccc1	0.6	8	0.9%[38.3 µM]	6	8	-0.5
Cc1ccc(Nc2nnc(SCC(=O)c3cc4ccccc4o3)s2)cc1C	-1.4	0	-1.6%	-14	-2	0.3
CCCCCCCCSc1nnc2[nH]c(=O)cc(N)n12	-2.4	2	-1.5%	30	-2	1.3
CC(C)(C)NC(=O)CSc1nnc(-c2ccncc2)n1Cc1ccccc1	-1.8	0	-1.0%	4	11	0.2
CN(C(=O)CSc1nnc(-c2ccccc2)c(-c2ccccc2)n1)C1CCS(=O)(=O)C1 (stereo not given)	0.9	-2	1.4%	-5	15	0.1
COCCNC(=O)CSCc1nc(-c2ccc(SC)cc2)oc1C	0.9	0	0.9%[38.3 µM]	-2	-5	0.0

Bioassay records from PubChem.
